FGF22 binding: shifts melting point of recombinant human FGF22; recombinant FGF22 thermal shift, SYPRO orange fluorescence; percent of sucrose octasulfate shift, DMSO zero; calls only at 9.99 µM; actives 1.5% (n = 340,000);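 active = melting point raised past a set limit in the mean and every replicate; three in four hits are not shown here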
Target sequence (Q9HCT0 whole entry, looked up): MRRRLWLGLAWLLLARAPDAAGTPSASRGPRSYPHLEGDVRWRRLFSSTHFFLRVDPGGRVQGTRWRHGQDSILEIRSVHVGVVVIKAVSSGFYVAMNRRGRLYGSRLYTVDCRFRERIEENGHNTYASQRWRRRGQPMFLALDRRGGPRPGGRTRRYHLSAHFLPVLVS
T cruzi repl: blocks replication of Trypanosoma cruzi; inhibition, % (concentration not given with the values); actives 1.4% (n = 300,000); T. cruzi beta-gal in NIH3T3, luminescence, 90 h;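 active = mean inhibition across valid replicates above about 55%, limit read from the data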;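 also: signal also drops with host cell toxicity which is not excluded here; 0% = plate median of DMSO wells and 100% = zero luminescence signal; higher percent means less beta-gal luminescence so fewer parasites; stock transfer was 50 nL into about 50 µL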
MLL AF4-AF9 inh: blocks AF4 peptide binding to human AF9 | AID 651704 | actives 0.47% (n = 350,000) | P42568 | inhibition, % at 10 µM | AlphaScreen, biotin-AF4 peptide binding to FLAG-AF9;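 active = every replicate reaching a set inhibition limit, whatever the replicate mean, cut at about 25% in these data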;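 also: 0% = plate neutral control median and 100% = total signal loss; the record names both 10 and 1 µM as test concentration; the first replicate is given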
Target sequence (P42568 whole entry, looked up): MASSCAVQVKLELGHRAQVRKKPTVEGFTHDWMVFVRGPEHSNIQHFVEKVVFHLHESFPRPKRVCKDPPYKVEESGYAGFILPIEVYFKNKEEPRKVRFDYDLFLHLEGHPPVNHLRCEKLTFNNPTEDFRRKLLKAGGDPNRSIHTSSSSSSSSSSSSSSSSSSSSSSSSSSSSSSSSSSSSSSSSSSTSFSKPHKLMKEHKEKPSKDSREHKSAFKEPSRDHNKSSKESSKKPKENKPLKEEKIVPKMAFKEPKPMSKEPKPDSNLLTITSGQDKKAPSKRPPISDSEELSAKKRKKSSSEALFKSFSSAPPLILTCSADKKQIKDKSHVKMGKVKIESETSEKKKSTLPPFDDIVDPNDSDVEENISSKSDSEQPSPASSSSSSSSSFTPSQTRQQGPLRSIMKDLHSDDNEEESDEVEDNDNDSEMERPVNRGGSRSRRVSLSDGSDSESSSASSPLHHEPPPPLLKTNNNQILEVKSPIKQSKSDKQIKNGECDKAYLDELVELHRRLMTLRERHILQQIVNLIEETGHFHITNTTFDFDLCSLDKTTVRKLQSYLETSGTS
rRNA inh HTS: inhibitors of bacterial rRNA selective over humanized ribosomes; E. coli WT GFP vs humanized-ribosome RFP mutants, fluorescence, 24 h; hits give low values; DMSO median 0, no signal -100; GFP signal change (wild-type ribosome), % (test concentration not listed); actives 1.6% (n = 350,000);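 active = significant combined selectivity score with lowered wild-type GFP, culture density cut under 30%, mutant RFP and density less affected; inactive = any of these conditions unmet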; also: one replicate is shown; some compounds called inactive have numbers as strong as hits
UCH37 inh: inhibitors of human deubiquitinating enzyme UCH37 | purified proteasome/UCH37, Ub-AMC cleavage fluorescence | inhibition, % (test concentration not listed) | actives 0.33% (n = 330,000) | AID 588478;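 active = mean of two replicates above 20%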;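 also: 0% = compound-free wells with enzyme and 100% = wells lacking proteasome; stock transfer was 100 nL into about 20 µL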
Target sequence (Q9Y5K5 whole entry, looked up): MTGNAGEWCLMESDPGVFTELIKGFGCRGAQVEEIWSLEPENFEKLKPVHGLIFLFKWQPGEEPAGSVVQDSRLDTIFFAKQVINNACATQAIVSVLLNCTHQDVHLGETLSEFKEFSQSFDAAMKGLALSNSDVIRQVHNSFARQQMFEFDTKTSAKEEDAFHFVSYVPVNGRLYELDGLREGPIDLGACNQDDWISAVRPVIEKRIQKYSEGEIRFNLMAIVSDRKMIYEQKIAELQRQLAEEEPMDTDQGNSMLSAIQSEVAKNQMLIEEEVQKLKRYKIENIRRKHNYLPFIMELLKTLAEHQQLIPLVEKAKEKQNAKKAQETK
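Test system – human UCH37 enzyme supplied as purified proteasome complex · Incubation – 30 min preincubation with enzyme, 25 min cleavage at room temperature · Detection – AMC fluorescence from Ub-AMC cleavage, excitation 355 nm, emission 460 nm · Benchmarks – no-proteasome wells (full inhibition) and compound-free wells (no inhibition)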
Bfl-1 A1 inh: inhibitors of the anti-apoptotic protein A1, read as caspase activation. AID 2462. MEF A1-2A-BIM cells, Caspase-Glo 3/7 luminescence, 3 h; percent of clofoctol response, vehicle zero. actives 0.066% (n = 330,000). caspase activation, % (no concentration beside the values);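 active = over half of replicate activation scores above 10%, or exactly half above 10 with the replicate mean above 10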;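 also: wells of about 30 µL received 50 nL stock; many hits fall short of the cut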
Beta cell apopt: blocks beta cell apoptosis; INS-1E cytokine-induced death, ATP luminescence, 48 h; percent of positive-control rescue, neutral wells zero; actives 0.8% (n = 300,000); protection from apoptosis, % (test concentration not listed);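 active = all replicates at 75% or more, or half of them and the mean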;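 also: 0% = cytokine-treated negative control wells and 100% = positive control rescue; higher means more ATP so stronger rescue from cytokine killing; wells of about 40 µL received 100 nL stock; the first replicate is given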
E coli growth: inhibitors of Escherichia coli growth; OD600, 23 h; hits give low values; OD600 absorbance (concentration not given with the values); actives 0.21% (n = 330,000); AID 1053175;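 active = OD600 absorbance below the run mean of sample wells minus 3.6 SD, in any replicate, cut at about 0.56 in these data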;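 also: stock transfer was 300 nL into about 60 µL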
rRNA inh HTS OD600: also measured in rRNA inh HTS; calls as there; OD600 change, %; measured here: OD600 growth;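 optical density of the mix in the first replicate; 0 = DMSO median and -100 = no signal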
rRNA inh HTS RFP: second read-out of rRNA inh HTS, no call of its own (marks repeat the call); RFP signal change, %; measured here: RFP humanized mutant strains;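 first replicate; 0 = DMSO median and -100 = no signal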
An asterisk follows results filed as active; i = inactive; . = no result given. Not all compounds are listed; rates above refer to the full screens.

SMILES | FGF22 binding | T cruzi repl | MLL AF4-AF9 inh | rRNA inh HTS | rRNA inh HTS OD600 | rRNA inh HTS RFP | UCH37 inh | Bfl-1 A1 inh | Beta cell apopt | E coli growth
COc1ccc(-c2nc(CS(=O)CC(=O)NC3CCCCCC3)c(C)o2)cc1 (centres undefined) | i | 25 | 7.7 | 0 | 10 | -0.5 | 0.7 | 0.8 | -3 | 0.68
COc1ccc(-c2nn(-c3ccccc3)cc2C(=O)NC(=S)Nc2cc(Cl)ccc2Cl)cc1 | i | 19 | -7.6 | 7 | -4 | -1.2 | 2.3 | 0.0 | 2 | 0.72
Cc1ccc(NC(=O)C(C)C(=O)Nc2ccc(C)cc2)cc1 | i | -14 | -3.3 | 11 | 4 | 2.6 | 4.2 | 0.0 | . | 0.68
COc1cccc(C=NNc2ccc([N+](=O)[O-])cn2)c1OC | . | . | -11 | 0 | 9 | -4.0 | 4.2 | . | . | 0.66
C=CCNc1cnn(-c2ccccc2)c(=O)c1Cl | i | -31 | 1.3 | 7 | 13 | 0.6 | 1.3 | 0.8 | -6 | 0.65
CCn1c(Cc2cccs2)nnc1SCC(=O)Nc1ccc(OC)c(OC)c1 | . | 5 | . | . | . | . | 4.1 | 1.8 | 0 | 0.68
COc1ccccc1NS(=O)(=O)c1cc(NC(=O)c2ccncc2)ccc1N1CCCC1 | i | 38 | -0.2 | -5 | -7 | -0.4 | 6.9 | -0.2 | 28 | 0.74
COc1ccccc1NC(=O)CN1CCN(CC(=O)Nc2cc(C)ccc2OC)CC1 | i | 10 | 1.2 | 8 | 11 | -0.8 | 3.8 | . | . | 0.69
COc1ccc(CCNC(=O)c2nnn(CC(=O)Nc3ccccc3)c2N)cc1OC | . | -5 | . | . | . | . | 9.9 | 1.2 | -11 | 0.74
COc1ccc(-c2cn3cccnc3n2)cc1F | . | -2 | . | . | . | . | i | 0.2 | -2 | 0.61
COc1ccc(C2(CN(C(C)=O)C(C)=O)CCCC2)cc1OC | . | -1 | . | . | . | . | 0.7 | -0.4 | -5 | 0.71
CCCCN1C2=C(C(=O)CCC2)C(c2ccc(Cl)c(Cl)c2)C2=C1c1ccccc1C2=O (centres undefined) | . | 53 | . | . | . | . | -0.4 | 0.9 | 62 | 0.78
COc1cc2c(cc1OC)CN(C(=O)Nc1ccccc1)CC2 | i | 0 | 4.9 | -5 | -3 | -0.5 | -7.0 | 0.4 | 4 | 0.7
COc1cc(NC(=O)COc2ccccc2Cl)ccc1NC(=O)C(C)C | i | -17 | -0.1 | 9 | 6 | 0.2 | 5.3 | -0.4 | -6 | 0.73
CNC(=O)c1ccccc1NC(=O)C1CC(=O)N(C(C)C)C1 (centres undefined) | i | 4 | -1.2 | 7 | 14 | 2.1 | 0.2 | 0.5 | -5 | 0.66
Cc1c(N=Cc2cc(Br)cc(Br)c2O)cccc1C(=O)O | i | -5 | 0.3 | 4 | 2 | -1.8 | 4.7 | 0.3 | 1 | 0.67
CN1CCCN(S(=O)(=O)c2cccc(Cl)c2Cl)CC1 | i | 4 | 1.6 | 24 | 13 | 0.9 | 2.6 | 0.1 | -3 | 0.65
CCn1cc(CN2CCCC(C(=O)Nc3cccc(-c4cc5ccccc5[nH]4)c3)C2)c(C)n1 (centres undefined) | i | 23 | 12 | -15 | -5 | 2.5 | -6.7 | -0.4 | 1 | 0.67
CC(C)N=C(Nc1cccnc1)c1ccccc1 | i | -5 | 0.9 | 6 | 13 | 3.0 | 3.9 | 1.7 | -3 | 0.65
COc1cc(C)c(Cl)cc1S(=O)(=O)N(C)C | . | 1 | . | . | . | . | 0.4 | -0.1 | -1 | 0.72
C=CCSc1nnc(NC(=O)c2cn(CC)c3nc(C)ccc3c2=O)s1 | i | 22 | 1.9 | -29 | -37 | 28 | 4.5 | 0.0 | 0 | 0.56
C=CCC1(NCc2ccco2)CCN(CC)CC1 | . | -10 | . | . | . | . | 0.9 | -0.2 | -7 | 0.68
COc1cc(-c2cc(C(=O)Nc3ccc(S(=O)(=O)NCc4ccco4)cc3)c3ccccc3n2)cc(OC)c1OC | i | 56* | -6.4 | -3 | -1 | 13 | -345 | -0.3 | 11 | 0.68
CC(C)(C)c1ccc(C(=O)N/C(=C\c2cccs2)C(=O)N2CCOCC2)cc1 | i | -10 | 3.5 | -3 | -4 | 0.2 | 8.4 | 0.6 | 1 | 0.69
CCC(CC)C(=O)NCc1ccc(OC)cc1 | i | -4 | -2.0 | 31 | 23 | 9.4 | 3.1 | -0.9 | -2 | 0.66

Sorted by value in rRNA inh HTS (falling): three from the list above
| Structure | FGF22 binding | MLL AF4-AF9 inh | rRNA inh HTS | rRNA inh HTS OD600 | rRNA inh HTS RFP | UCH37 inh | E coli growth |
| --- | --- | --- | --- | --- | --- | --- | --- |
| COc1ccc(-c2nn(-c3ccccc3)cc2C(=O)NC(=S)Nc2cc(Cl)ccc2Cl)cc1 | i | -7.6 | 7 | -4 | -1.2 | 2.3 | 0.72 |
| COc1ccc(-c2nc(CS(=O)CC(=O)NC3CCCCCC3)c(C)o2)cc1 (centres undefined) | i | 7.7 | 0 | 10 | -0.5 | 0.7 | 0.68 |
| COc1ccccc1NS(=O)(=O)c1cc(NC(=O)c2ccncc2)ccc1N1CCCC1 | i | -0.2 | -5 | -7 | -0.4 | 6.9 | 0.74 |

New compounds follow
SMILES | FGF22 binding | T cruzi repl | MLL AF4-AF9 inh | rRNA inh HTS | rRNA inh HTS OD600 | rRNA inh HTS RFP | UCH37 inh | Bfl-1 A1 inh | Beta cell apopt | E coli growth
COCCCn1c(SCC(=O)OC2CCCCC2)nnc1-c1ccco1 | i | -2 | -27 | -4 | 2 | 2.0 | 0.4 | 0.5 | -3 | 0.64
CCC(=O)Nc1ccc(C(=O)n2ccc(C)n2)cc1 | . | -18 | . | . | . | . | 2.4 | 0.3 | -2 | 0.67
COCCN(C(=O)CSc1nnc(-c2cccc(F)c2)n1N)c1c(N)n(Cc2ccccc2)c(=O)[nH]c1=O | . | -22 | -1.1 | 6 | 5 | -1.1 | . | 0.1 | -1 | .
COc1cc(NS(=O)(=O)c2ccc(NC(=S)NC(=O)C3CCCC3)cc2)nc(OC)n1 | . | -13 | . | . | . | . | -2.4 | -0.1 | -1 | 0.74
OCCNCCCCSc1ccc(Cl)cc1 | i | 9 | 3.5 | 3 | 1 | 0.5 | 3.4 | 0.6 | 1 | 0.68
O=C(OCn1ncc(Cl)c(Cl)c1=O)c1ccc(C(F)(F)F)cc1 | . | 64* | . | -5 | 0 | 7.6 | 1.9 | . | . | 0.65
Cn1cccc1/C=N/NC(=O)c1ccco1 | i | -1 | 2.2 | 15 | 7 | 0.8 | . | 0.3 | 6 | .
O=C(Nc1ccc(Br)cc1)C1C2C=CC3(O2)C1C(=O)N(CCN1CCOCC1)C3C(=O)NC1CCCCC1 (centres undefined) | i | 8 | 0.0 | 2 | 10 | -2.2 | 3.8 | -0.2 | -4 | 0.67
COC(=O)c1[nH]c(C)c(/C(O)=C2\C(=O)C(=O)N(CCN(C)C)C2c2cc(OC)ccc2OC)c1C (centres undefined) | . | 0 | . | . | . | . | 0.2 | 0.6 | 0 | .
CC1CC(C)(C)NC(=S)N1CCC(=O)NCc1ccc(F)cc1 (centres undefined) | i | -19 | -3.8 | 5 | -1 | 2.5 | 0.0 | -0.3 | -12 | 0.72
COc1ccc(NC(=O)Cn2ncn3nc(-c4ccc(OC)cc4)cc3c2=O)cc1 | i | 14 | -1.3 | -7 | -8 | -2.3 | -0.5 | -0.6 | 9 | 0.68
CC(C)NS(=O)(=O)c1ccc(NC(=O)C2CCCCC2)cc1 | . | -15 | . | . | . | . | 1.1 | 1.1 | -7 | 0.67
C=CC[C@@H](CC(=O)N(CCO)Cc1ccccc1)C(=O)NC[C@@H](OC(=O)[C@@H](CC=C)CC(=O)OC(C)(C)C)c1ccccc1 | i | . | 2.0 | -3 | -8 | 2.9 | -0.4 | 0.9 | -1 | .
CCCCn1c(N)c(N(CC(C)C)C(=O)c2ccc(S(=O)(=O)N3CCCCC3)cc2)c(=O)[nH]c1=O | i | -7 | 1.1 | -1 | -1 | -3.0 | 0.8 | 0.5 | 1 | 0.69
Cc1ccc(NC(=O)c2cccs2)cc1NC(=O)c1ccccc1Cl | i | 3 | -3.1 | 6 | 7 | 0.5 | -42 | -0.5 | 8 | 0.71
Cc1ccc(C(=O)NCC(=O)OCC(=O)c2c(N)n(C)c(=O)n(C)c2=O)cc1C | i | . | 1.7 | -2 | 2 | 0.1 | 3.1 | 0.2 | -3 | 0.68
NS(=O)(=O)c1ccc(NC(=O)c2ccc3c(c2)CCN3S(=O)(=O)c2ccccc2)cc1 | i | -1 | -1.3 | 10 | 11 | -0.3 | 1.7 | 0.6 | -1 | 0.67
COc1cc(S(=O)(=O)NC2CCCCC2C)ccc1Cl (centres undefined) | . | . | . | . | . | . | 3.2 | -0.1 | -9 | 0.75
CCCCN(CC)C(=O)Cn1ncc2c3ccccc3n(CCC)c2c1=O | i | -1 | -0.4 | -27 | -40 | -0.4 | -26 | -0.4 | 5 | 0.7
Cc1sc(N2CCN(S(=O)(=O)c3ccc4c(c3)NC(=O)CO4)CC2)nc1-c1ccccc1 | i | 37 | 0.9 | 7 | -2 | 0.6 | 0.0 | 1.6 | . | 0.7
O=C1CSC(c2ccccc2O)N1Cc1ccccc1 (centres undefined) | i | 2 | 1.4 | -10 | 3 | 2.1 | 1.9 | -0.4 | 3 | 0.69
COc1ccc(C(=O)/C=C2/Sc3cc4c(cc3N2C)OCO4)cc1 | i | 5 | 0.6 | 12 | 13 | -6.0 | -2.4 | -0.2 | 5 | 0.72
O=C(Cn1cnc2ccccc2c1=O)NCCC(=O)Nc1ccc2c(c1)OCO2 | i | -7 | 2.0 | 1 | 3 | -1.1 | -2.6 | 0.4 | -8 | 0.72
CCOC(=O)C1C(c2ccc(OC)c(OC)c2)c2c([nH][nH]c2=O)CC1(C)O (centres undefined) | i | 2 | -1.4 | 6 | 2 | -1.7 | 5.8 | -0.6 | -1 | 0.69
Cc1ccc(CNC(=O)C2CCN(S(=O)(=O)N3CCC4(CC3)OCCO4)CC2)cc1 | . | -18 | . | . | . | . | -1.7 | 0.3 | -3 | 0.72

(list continues)
SMILES | FGF22 binding | T cruzi repl | MLL AF4-AF9 inh | rRNA inh HTS | rRNA inh HTS OD600 | rRNA inh HTS RFP | UCH37 inh | Bfl-1 A1 inh | Beta cell apopt | E coli growth
CCOC(=O)Cn1nnc(-c2cc(OC)c(OC)c(OC)c2)n1 | . | -10 | 2.0 | 8 | 0 | 2.8 | 1.2 | 1.5 | -2 | 0.75
NNC(=O)CSc1cccc2cccnc12 | . | -8 | . | . | . | . | -11 | 0.3 | 0 | 0.66
CCCCN1CCNC[C@@H]1Cc1ccccc1 | i | 6 | -11 | -2 | 1 | 5.0 | 1.4 | -0.4 | -4 | .
CN1C(=O)C2C3c4ccccc4C(c4ccccc43)[C@@H]2C1=O (some centres undefined) | i | -1 | 0.0 | 7 | 5 | -1.2 | 1.8 | 0.6 | -6 | 0.7
CN(Cc1nc2ccccc2n1C)S(=O)(=O)c1ccc(F)cc1 | . | . | . | . | . | . | 0.7 | 0.6 | 4 | 0.69
COc1ccc(-c2nnn(CC(=O)N(CC(=O)NC3CCCC3)c3ccccc3F)n2)cc1OC | i | -8 | 0.4 | -1 | 0 | 1.2 | 1.1 | -0.7 | -7 | 0.66
COc1ccc(Nc2nc(C)cc(=O)[nH]2)c(OC)c1 | . | -5 | . | . | . | . | 0.9 | -0.3 | -7 | 0.59

Compound activity: PubChem BioAssay, several laboratories
